Compound activity (PubChem)
Env fusion inh = HIV envelope-mediated fusion inhibition. actives 1.1% (n = 360,000). AID 651610. HeLa-JRFL Env/CEM21 cell fusion, luciferase. inhibition, % at 12.3 µM;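 active means mean replicate inhibition score of at least 50 and every replicate individually at or above 50; inconclusive means only one of the two criteria met; inactive means mean below 50 and not all replicates reaching 50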;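 further: 0% = plate neutral controls and 100% = maraviroc near 300 nM; one replicate is shown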
Yeast UUG start = alters start codon recognition fidelity in yeast | actives 0.13% (n = 350,000) | S. cerevisiae UUG-firefly luciferase reporter, luminescence/redox ratio | activity score, % at 18.7 µM;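 active means replicate mean at a twofold rise or more, about +100% in these data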;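 further: firefly luciferase made from a UUG start codon reports start codon fidelity; reporter light over untreated wells divided by growth signal over untreated wells; some hits fall short of that in this replicate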
* hit, by the source's call; ? = inconclusive; & = joins results of further samples; [ ] = another dose, or the depositor's remark. Some of the compounds tested; count on the stated rates, not on these rows.

entry	SMILES	Env fusion inh	Yeast UUG start
1	COc1ccc(S(=O)(=O)Nc2ccc3c(c2)C(=O)N([C@@H](C)CO)C[C@@H](C)[C@H](CN(C)C(=O)C2CCCCC2)OCCCC[C@H](C)O3)cc1	-54[16.7 µM]	13
2	COCC#Cc1cnc2c(c1)C(=O)N([C@@H](C)CO)C[C@H](C)[C@H](CN(C)C(=O)CN1CCOCC1)O2	3[16.7 µM]	14
3	C[C@@H]1CCCCO[C@@H](CN(C)C(=O)c2ccccc2)[C@H](C)CN([C@H](C)CO)C(=O)c2cc(NS(=O)(=O)c3cn(C)cn3)ccc2O1	12[16.7 µM]	10
4	C[C@@H]1CCCCO[C@H](CN(C)C(=O)Nc2ccc(F)cc2)[C@@H](C)CN([C@H](C)CO)C(=O)c2cc(NC(=O)Nc3ccc4c(c3)OCO4)ccc2O1	-13[16.7 µM]	6
5	COc1ccccc1-c1cn(CC[C@@H]2CC[C@H](NC(=O)NC(C)C)[C@H](CO)O2)nn1	-10[16.7 µM]	-5
6	CCCNC(=O)N(C)C[C@@H]1Oc2ncc(C#Cc3ccccc3F)cc2C(=O)N([C@@H](C)CO)C[C@@H]1C	6[16.7 µM]	-11
7	O=C(C[C@H]1CC[C@H]2[C@@H](COC[C@H](O)CN2S(=O)(=O)c2ccc(F)cc2)O1)NCC1CCCCC1	6[16.7 µM]	7
8	C[C@@H]1CCCCO[C@@H](CN(C)Cc2ccc3c(c2)OCO3)[C@H](C)CN([C@H](C)CO)C(=O)c2cc(NC(=O)Nc3ccccc3)ccc2O1	-7[16.7 µM]	17
9	COc1ccc(NC(=O)Nc2ccc3c(c2)C(=O)N([C@@H](C)CO)C[C@H](C)[C@@H](CN(C)Cc2ccc(C(F)(F)F)cc2)OCCCC[C@@H](C)O3)cc1	26[16.7 µM]	-15
10	C[C@@H]1CCCCO[C@@H](CN(C)Cc2ccccc2)[C@@H](C)CN([C@@H](C)CO)C(=O)c2cc(NS(=O)(=O)c3ccc(F)cc3)ccc2O1	-12[16.7 µM]	27

A different layout for part of the listing above.
The line under a structure holds: Env fusion inh, Yeast UUG start
(7) O=C(C[C@H]1CC[C@H]2[C@@H](COC[C@H](O)CN2S(=O)(=O)c2ccc(F)cc2)O1)NCC1CCCCC1
    6[16.7 µM], 7
(6) CCCNC(=O)N(C)C[C@@H]1Oc2ncc(C#Cc3ccccc3F)cc2C(=O)N([C@@H](C)CO)C[C@@H]1C
    6[16.7 µM], -11
(5) COc1ccccc1-c1cn(CC[C@@H]2CC[C@H](NC(=O)NC(C)C)[C@H](CO)O2)nn1
    -10[16.7 µM], -5

Remaining list, next part.
entry	SMILES	Env fusion inh	Yeast UUG start
11	CC(C)CC#Cc1ccc2c(c1)O[C@H](CN(C)CC1CCOCC1)[C@@H](C)CN([C@H](C)CO)S2(=O)=O	22[16.7 µM]	-6
12	O=C(Nc1cc(F)ccc1F)N[C@@H]1CC[C@H](CCNC(=O)c2cnccn2)O[C@H]1CO	8[16.7 µM]	2
13	C[C@H](NC(=O)C[C@@H]1CC[C@@H](NC(=O)Nc2ccc3c(c2)OCO3)[C@H](CO)O1)c1ccccc1	-7[16.7 µM]	16
14	COc1ccc(S(=O)(=O)Nc2ccc3c(c2)C(=O)N([C@@H](C)CO)C[C@H](C)[C@@H](CN(C)C(=O)Nc2ccc(F)cc2)O3)cc1	13[16.7 µM]	19
15	Cc1ccc(S(=O)(=O)Nc2ccc3c(c2)C(=O)N([C@H](C)CO)C[C@H](C)[C@H](CN(C)Cc2ccc(C(=O)O)cc2)OCCCC[C@H](C)O3)cc1	26[16.7 µM]	4
16	Cc1noc(C)c1NC(=O)N[C@@H]1C=C[C@@H](CC(=O)N2CCCCC2)O[C@@H]1CO	-17[16.7 µM]	-9
17	CC(C)CC#Cc1cnc2c(c1)C(=O)N([C@@H](C)CO)C[C@@H](C)[C@H](CN(C)C(=O)C1CCOCC1)O2	-24[16.7 µM]	13
18	CC(C)C#Cc1ccc2c(c1)O[C@H](CN(C)C(=O)c1cccnc1)[C@@H](C)CN([C@@H](C)CO)S2(=O)=O	11[16.7 µM]	9
19	COc1ccc(S(=O)(=O)Nc2ccc3c(c2)C(=O)N([C@H](C)CO)C[C@H](C)[C@H](CN(C)Cc2ccc(C(F)(F)F)cc2)OCCCC[C@H](C)O3)cc1	47[16.7 µM]	14
20	COCC#Cc1ccc2c(c1)O[C@@H](CN(C)C(=O)C1CC1)[C@H](C)CN([C@H](C)CO)S2(=O)=O	27[16.7 µM]	-4

entry	SMILES	Env fusion inh	Yeast UUG start
21	C[C@@H]1CN([C@@H](C)CO)C(=O)c2cc(NC(=O)C3CCCCC3)ccc2O[C@H]1CN(C)CC1CCCCC1	2[16.7 µM]	4
22	O=C(N[C@@H]1CC[C@H](CCNC(=O)C2CCCC2)O[C@H]1CO)c1ccncc1	-14[16.7 µM]	-10
23	O=C(C[C@@H]1C[C@H]2c3cc(NC(=O)Nc4ccccc4)ccc3O[C@H]2[C@@H](CO)O1)NCc1ccncc1	-9[16.7 µM]	-12
24	C[C@@H]1CN([C@H](C)CO)C(=O)c2cc(NS(=O)(=O)c3ccccc3)ccc2O[C@@H]1CN(C)CC1CC1	9[16.7 µM]	-1
25	C[C@@H]1CCCCO[C@H](CN(C)CC2CCCCC2)[C@H](C)CN([C@H](C)CO)C(=O)c2cc(NC(=O)Nc3cccc4ccccc34)ccc2O1	14[16.7 µM]	14
26	CCC(=O)N(C)C[C@@H]1Oc2ncc(-c3ccc(C)cc3)cc2C(=O)N([C@H](C)CO)C[C@@H]1C	4[16.7 µM]	5
27	O=C(C[C@@H]1CC[C@@H](NC(=O)C2CC2)[C@H](CO)O1)NCC1CC1	-5[16.7 µM]	5
28	O=C1O[C@@H](c2ccccc2)[C@@H](c2ccccc2)N2[C@@H](c3ccc(OCCO)cc3)[C@]3(C(=O)Nc4ccc(C#CC5(O)CCCCCC5)cc43)[C@@H](C(=O)N3CCCCCCC3)[C@H]12	21[16.7 µM]	-11
29	CCCNC(=O)N(C)C[C@@H]1Oc2ncc(C#CC3CC3)cc2C(=O)N([C@H](C)CO)C[C@H]1C	3[16.7 µM]	-11
30	O=C(NCC[C@H]1CC[C@@H](NC(=O)C2CCCCC2)[C@H](CO)O1)Nc1ccc(Cl)cc1	-14[16.7 µM]	15

Reprinted at random: three records from the list
entry	SMILES	Env fusion inh	Yeast UUG start
26	CCC(=O)N(C)C[C@@H]1Oc2ncc(-c3ccc(C)cc3)cc2C(=O)N([C@H](C)CO)C[C@@H]1C	4[16.7 µM]	5
17	CC(C)CC#Cc1cnc2c(c1)C(=O)N([C@@H](C)CO)C[C@@H](C)[C@H](CN(C)C(=O)C1CCOCC1)O2	-24[16.7 µM]	13
1	COc1ccc(S(=O)(=O)Nc2ccc3c(c2)C(=O)N([C@@H](C)CO)C[C@@H](C)[C@H](CN(C)C(=O)C2CCCCC2)OCCCC[C@H](C)O3)cc1	-54[16.7 µM]	13

(further entries)
entry	SMILES	Env fusion inh	Yeast UUG start
31	C[C@H]1CCCCO[C@H](CN(C)C(=O)Nc2ccc(F)cc2)[C@@H](C)CN([C@@H](C)CO)C(=O)c2cc(NC(=O)Nc3ccccc3)ccc2O1	45[16.7 µM]	-10
32	C[C@@H]1CN([C@@H](C)CO)C(=O)c2cc(C#CCN(C)C)cnc2O[C@@H]1CN(C)C(=O)c1ccc(F)cc1	-75[16.7 µM]	7
33	O=C(C[C@H]1CC[C@H](NC(=O)CCN2CCCCC2)[C@H](CO)O1)Nc1ccc(-c2ccccc2)cc1	3[16.7 µM]	-2
34	O=C(CN1CCOCC1)NCC[C@@H]1CC[C@H](NC(=O)c2ccc3c(c2)OCO3)[C@@H](CO)O1	-8[16.7 µM]	-8
35	C[C@@H]1CN([C@@H](C)CO)S(=O)(=O)c2ccc(-c3cncnc3)cc2O[C@H]1CN(C)Cc1ccncc1	-21[16.7 µM]	-6
36	CC(C)NC(=O)N(C)C[C@@H]1Oc2ncc(C#CC3CCCCC3)cc2C(=O)N([C@H](C)CO)C[C@H]1C	6[16.7 µM]	49
37	O=C(Nc1ccc(C(F)(F)F)cc1)N[C@@H]1C=C[C@@H](CC(=O)N2CCCCC2)O[C@H]1CO	7[16.7 µM]	-10
38	N#C[C@@H]1[C@H](c2ccc(C#CC3CCCC3)cc2)[C@H](CO)N1S(=O)(=O)c1ccccc1	-11[16.7 µM]	-16
39	COc1ccc(NC(=O)N(C)C[C@@H]2Oc3ccc(NC(=O)c4ccncc4)cc3CC(=O)N([C@H](C)CO)C[C@@H]2C)cc1	3[16.7 µM]	-9
40	CCCN(C)C[C@@H]1OCCCC[C@H](C)Oc2ccc(NC(=O)Cc3ccccc3)cc2C(=O)N([C@H](C)CO)C[C@@H]1C	-25[16.7 µM]	9

entry	SMILES	Env fusion inh	Yeast UUG start
41	CNC(=O)C[C@@H]1CC[C@H]2[C@@H](COc3ccc(NC(=O)c4cccc(F)c4)cc3C(=O)N2C)O1	?	-14&-10
42	Cc1ccc(S(=O)(=O)Nc2ccc3c(c2)C(=O)N([C@@H](C)CO)C[C@@H](C)[C@@H](CN(C)C(=O)CCCN(C)C)OCCCC[C@@H](C)O3)cc1	12[16.7 µM]	16
43	CCCNC(=O)N1[C@H](C#N)[C@@H](c2ccc(-c3cccnc3)cc2)[C@H]1CO	24[16.7 µM]	-1
44	O=C(C[C@@H]1CC[C@@H](NC(=O)Nc2ccc(C(F)(F)F)cc2)[C@@H](CO)O1)NCCN1CCCC1	-14[16.7 µM]	3
45	Cc1ccc(S(=O)(=O)Nc2ccc3c(c2)CC(=O)N([C@@H](C)CO)C[C@@H](C)[C@H](CN(C)S(C)(=O)=O)O3)cc1	-3[16.7 µM]	11
46	CC(=O)N(C)C[C@@H]1Oc2ncc(C#C[C@H](C)O)cc2C(=O)N([C@@H](C)CO)C[C@@H]1C	-31[16.7 µM]	-1
47	C[C@@H]1CN([C@H](C)CO)C(=O)c2cc(-c3ccncc3)cnc2O[C@@H]1CN(C)C(=O)NC1CCCC1	-1[16.7 µM]	-11
48	CO[C@H]1CN(C)C(=O)c2ccc(NC(=O)Nc3ccccc3)cc2OC[C@@H](C)N(C(=O)CC2CC2)C[C@H]1C	-5[16.7 µM]	5
49	CCCc1cn(CC[C@@H]2CC[C@@H](NC(=O)C3CCCCC3)[C@@H](CO)O2)nn1	-3[16.7 µM]	-22
50	COc1ccc(NC(=O)N(C)C[C@@H]2OCCCC[C@@H](C)Oc3ccc(NS(=O)(=O)c4ccc(Cl)cc4)cc3C(=O)N([C@H](C)CO)C[C@H]2C)cc1	-65[16.7 µM]	-7

entry	SMILES	Env fusion inh	Yeast UUG start
51	C[C@@H]1CCCCO[C@H](CN(C)C)[C@H](C)CN([C@H](C)CO)C(=O)c2cc(NC(=O)Nc3ccc4c(c3)OCO4)ccc2O1	-4[16.7 µM]	10
52	C[C@H]1CN([C@@H](C)CO)C(=O)Cc2cc(NC(=O)Nc3ccccc3)ccc2O[C@@H]1CN(C)C(=O)Nc1ccc2c(c1)OCO2	-15[16.7 µM]	43
53	CC(C)CC#Cc1ccc2c(c1)O[C@@H](CN(C)C(=O)Nc1ccccc1)[C@@H](C)CN([C@H](C)CO)S2(=O)=O	25[16.7 µM]	23
54	C[C@@H]1CN([C@@H](C)CO)C(=O)c2cc(NS(=O)(=O)c3ccc(Cl)cc3)ccc2O[C@@H](C)CCCCO[C@@H]1CN(C)C(=O)Nc1cccc2ccccc12	17[16.7 µM]	3
55	Cc1noc(C)c1NC(=O)N(C)C[C@@H]1Oc2ccc(N(C)C)cc2C(=O)N([C@H](C)CO)C[C@H]1C	-11[16.7 µM]	13
56	COc1ccc(CNC(=O)C[C@@H]2C=C[C@H](NS(=O)(=O)c3cccc(OC)c3)[C@H](CO)O2)cc1	14[16.7 µM]	0
57	C[C@H](CO)N1C[C@H](C)[C@@H](CN(C)C(=O)c2ccccc2)OCCCC[C@H](C)Oc2ccc(NC(=O)c3ccncc3)cc2C1=O	-19[16.7 µM]	26
58	C[C@@H]1CN([C@H](C)CO)S(=O)(=O)c2ccc(-c3cccc(F)c3)cc2O[C@H]1CN(C)S(C)(=O)=O	33[16.7 µM]	8
59	COc1ccc(CN(C)C[C@@H]2OCCCC[C@@H](C)Oc3ccc(NC(=O)c4ccncc4)cc3C(=O)N([C@@H](C)CO)C[C@@H]2C)cc1	1[16.7 µM]	7
60	COc1ccc(NC(=O)N(C)C[C@@H]2Oc3ccc(NC(=O)c4ccncc4)cc3C(=O)N([C@H](C)CO)C[C@@H]2C)cc1	42[16.7 µM]	3

entry	SMILES	Env fusion inh	Yeast UUG start
61	COC(=O)C[C@@H]1CC[C@H]2[C@@H](COc3ccc(NC(=O)c4ccc(F)c(F)c4)cc3C(=O)N2C)O1	4[16.7 µM]	3
62	COCC#Cc1cnc2c(c1)C(=O)N([C@@H](C)CO)C[C@H](C)[C@H](CN(C)Cc1ccc(-c3ccccc3)cc1)O2	6[16.7 µM]	-11
63	CC(C)NC(=O)Nc1ccc2c(c1)C(=O)N([C@@H](C)CO)C[C@H](C)[C@H](CN(C)C(=O)Nc1ccc(C(F)(F)F)cc1)O2	17[16.7 µM]	-8
64	C[C@@H]1CN([C@H](C)CO)C(=O)c2cc(C#Cc3ccccc3F)cnc2O[C@H]1CN(C)C(=O)Cc1ccncc1	-31[16.7 µM]	9
65	C[C@@H]1CN([C@H](C)CO)C(=O)c2cccc(NC(=O)c3cnccn3)c2O[C@@H]1CN(C)Cc1ccc(C(=O)O)cc1	3[16.7 µM]	21
66	COc1ccc(NC(=O)Nc2ccc3c(c2)CC(=O)N([C@@H](C)CO)C[C@H](C)[C@H](CN(C)C(=O)Nc2ccc(C(F)(F)F)cc2)O3)cc1	-1[16.7 µM]	19
67	COc1ccc(NC(=O)Nc2ccc3c(c2)[C@H]2C[C@H](CC(=O)NCc4ccccc4F)O[C@H](CO)[C@H]2O3)cc1	16[16.7 µM]	28
68	O=C(C[C@H]1C[C@H]2c3cc(NS(=O)(=O)c4ccccc4)ccc3O[C@H]2[C@H](CO)O1)NC1CCCCC1	13[16.7 µM]	17
69	C[C@@H](NC(=O)C[C@H]1C=C[C@H](NC(=O)c2cccnc2)[C@H](CO)O1)c1ccccc1	10[16.7 µM]	-15
